Assay outcomes from PubChem BioAssay.
PMP22 txn: Cell-based coincidence reporter assay to measure PMP22 gene transcription in S16 Pmp22-F2sN cells - Primary screen. S16 Pmp22-F2sN Schwann cells (luciferase reporters placed in the Pmp22 gene), FLuc/NLuc coincidence luminescence, 24 h. Potency, µM (doses to about 57.5 µM), inactives show top-dose activity change, negative = inhibition, actives largely listed as inhibitors. 2% of 43,000 active. AID 1508649, 2021; active = clear falling dose curves in both reporters; inconclusive = both reporters move, but less clearly or upward; inactive = either reporter flat; the % is the NLuc reporter signal; also: % is scaled to controls: 0 for no effect and ±100 for the full control effect; some results filed as inactive show a strong effect at the top dose
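Reporter cells (S16 Pmp22-F2sN, 500–1,000 per well) exposed to compounds for 24 h, 37C, 5% CO2; lysis with FLuc read after 10 min, then Stop&Glo and NLuc read after 10 min.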
HTT promoter inh: Primary qHTS for Identification of Small Molecule Inhibitors of Huntingtin Promoter Activity. HEK293 HTT promoter firefly luciferase reporter (activity 0% = vehicle and -100% = no light), 24 h. Potency, µM (doses to about 57.5 µM), for inactives: at the top dose activity change, negative = inhibition, most hits filed as inhibitors. 0.93% of 48,000 active; active = well fitted inhibition curve with a large enough effect; inconclusive = small, poorly fitted or top-dose-only effect; inactive = no such curve, though single readings can be large or run the other way; also: nearly all actives have a fitted effect of over 50% in size
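HEK293 Fluc reporter, 2,500 cells/well, 24 h pre-culture; cpds up to 57.5 uM final, 24 h 37 degrees C; Dual-Glo, 10 min RT; normalized vehicle = 0%, zero RLU = -100%.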
* marks the source's active call; other numbers are inactive results; ? = inconclusive; . = not tested or not shown; & = joins results of further samples; [ ] = remark or other dose. Potency is read from the fitted curve at half-maximal effect.

Preview (3 entries):
SMILES	PMP22 txn	HTT promoter inh
COc1ccc(Cl)cc1NC(=O)Cn1nc(Cc2ccncc2)c2ccccc2c1=O	?	-12%
O=C(CN1CCN(Cc2ccc(F)cc2Cl)C1=O)NCCc1ccc(Cl)cc1	?	-11%
Cc1ccc(NC(=O)Cn2c(=O)n(CCCCC(=O)NCc3ccccc3Cl)c(=O)c3ccccc32)cc1C	?	2%

The whole of this part, from the start:
SMILES	PMP22 txn	HTT promoter inh
COc1ccc(Cl)cc1NC(=O)Cn1nc(Cc2ccncc2)c2ccccc2c1=O	?	-12%
O=C(CN1CCN(Cc2ccc(F)cc2Cl)C1=O)NCCc1ccc(Cl)cc1	?	-11%
Cc1ccc(NC(=O)Cn2c(=O)n(CCCCC(=O)NCc3ccccc3Cl)c(=O)c3ccccc32)cc1C	?	2%
COc1cc(Cl)c(NC(=O)C2CCN(S(=O)(=O)c3c(C)noc3/C=C/c3ccccc3F)CC2)c(OC)c1	?	-19%
CCCCN(C)C(=O)C1CCCN(c2ncnc3onc(C)c23)C1 (stereo not drawn)	?	1.8µM*
COc1ccc(CC(=O)NCc2nc3cccnc3n2Cc2ccc(C)cc2)cc1	1%	-14%
Cc1nc2sccn2c(=O)c1S(=O)(=O)Nc1cc(C(F)(F)F)ccc1Cl	-3%	-14%
COc1cc(Cl)c(C)cc1NC(=O)C1CCCN(c2ncnc3onc(-c4ccc(F)cc4)c23)C1 (stereo not drawn)	?	?
COc1ccc(S(=O)(=O)c2cn(Cc3ccccc3)c3cc(N4CCCC4)c(F)cc3c2=O)cc1	14%	-7%
Cn1cc(C(=O)N2CCN(c3cccc(C(F)(F)F)c3)CC2)c2c3ccccc3n(C)c2c1=O	?	?
CCOc1ccccc1NC(=O)C1CCN(S(=O)(=O)c2ccc3c(c2)CCCN3C(C)=O)CC1	-22%	-13%
Cc1ccccc1OCc1ccc(-c2nc(C#N)c(NCc3cccnc3)o2)o1	?	?
O=S(=O)(c1ccc(Cl)cc1)c1nc(-c2cccs2)oc1SCc1ccc(F)cc1	3%	?
COc1ccc(CNC(=O)Cn2c(SCC(=O)N(C)c3ccccc3)nc3ccccc32)cc1	-40%	-3%
CC(C)OCCCNC(=O)c1ccc(Cn2c(=O)c3cccn3c3cccnc32)cc1	0%	-2%
O=C(Nc1cccc(C(F)(F)F)c1)C1CCN(c2nnc(-n3cccc3)s2)CC1	-10%	-5%
Cc1ccccc1CN1C(=O)c2ccccc2Sc2ccc(C(=O)N3CCOCC3)cc21	-25%	-16%
Cc1ccccc1NC(=O)c1nc(-c2ccncc2)no1	-3%	9%
COc1ccc(-c2onc(C)c2C)cc1S(=O)(=O)NCc1ccc(Br)cc1	?	?
CCN1CCN(CCCNC(=O)c2cnn(-c3ccccc3)c2C2CCN(C(=O)OC(C)(C)C)CC2)CC1	3%	-2%
CCc1ccccc1N(C)C(=O)c1cn(-c2cccc(OC)c2)c(=O)c2ccccc12	-29%	-18%
COc1cccc(OC)c1Cn1nnc2c(=O)[nH]c(C3CCN(C(=O)c4ccccc4)CC3)nc21	4%	-13%
COc1ccc(C2CC(=O)N(Cc3cccc(C)c3)c3c2c(C)nn3-c2nc(C)cc(C)n2)c(OC)c1 (stereo not drawn)	?	-22%
COc1cccc(-c2cc(C(=O)Nc3cc(Cl)ccc3O)on2)c1	?	32%[activator]
CCOc1ccc(NC(=O)C2CCN(c3nnc(-n4c(C)ccc4C)s3)CC2)cc1	-27%	-21%
Cc1cc2nc(-c3ccc(OCc4ccccc4F)cc3)cc(C(F)(F)F)n2n1	-21%	0%
CC(C)(C)c1ccc(C(O)CCCN2CCC(C(O)(c3ccccc3)c3ccccc3)CC2)cc1 (stereo not drawn)	.	8%
Cc1ccc(NC(=O)c2cccc3c(=O)c4c([nH]c23)CCCC4)c(C)c1	-14%	-25%
CCC1=Nc2cc(C(=O)NCc3ccccc3OC)ccc2Sc2ccc(Cl)cc21	?	?
CCOc1ccc(NC(=O)c2c(NC(=O)Cc3ccccc3)sc3c2CCC(C)C3)cc1 (stereo not drawn)	19µM*	-32%

Record cards, from the list above. Screens in order: PMP22 txn, HTT promoter inh
Record of CCN1CCN(CCCNC(=O)c2cnn(-c3ccccc3)c2C2CCN(C(=O)OC(C)(C)C)CC2)CC1 : 3%, -2%
Record of Cc1ccccc1NC(=O)c1nc(-c2ccncc2)no1 : -3%, 9%
Record of CCc1ccccc1N(C)C(=O)c1cn(-c2cccc(OC)c2)c(=O)c2ccccc12 : -29%, -18%
Record of Cc1ccc(NC(=O)c2cccc3c(=O)c4c([nH]c23)CCCC4)c(C)c1 : -14%, -25%

(listing goes on)
SMILES	PMP22 txn	HTT promoter inh
CCc1cc2c(cc3c(=O)n(CC(=O)N4CCC(C)CC4)nc(CC)n32)s1	?	-10%
CCOCCCNC(=O)c1ccc(NC(=O)N2CCCCc3ccccc32)cc1	-30%	-18%
CCC(C)NC(=O)c1ccc(Cn2c(=O)c3cccn3c3cccnc32)cc1 (stereo not drawn)	-17%	0%
Cc1cccc(CSc2nc(-c3cccc(C)c3)nc3c2Cc2c(CO)cnc(C)c2O3)c1	-12%	-10%
COc1cccc(CN2c3ccccc3-c3nc(SCC(=O)Nc4ccccc4Cl)ncc3S2(=O)=O)c1	-10%	-36%
CCOc1cc(C(=O)Nc2ccc3oc(-c4ccc(CC)cc4)nc3c2)cc(OCC)c1OCC	-12%	?
CCOc1ccc(NC(=O)CN2C(=O)CC(C)Sc3ccccc32)cc1 (stereo not drawn)	15%	-11%
Cc1cc(Nc2cc(F)ccc2C)nc(-n2nc(C)cc2C)n1	?	?
Cc1ccccc1Cn1cnc2c(oc3ccccc32)c1=O	-72%	1%
COc1ccc(NS(=O)(=O)c2ccc3[nH]c4c(c3c2)CCCC4)c(OC)c1	-36%	?
Cc1ccc(N2CC(c3nc4ccccc4n3CCC3CCCCC3)CC2=O)cc1 (stereo not drawn)	?	-5%
CCCCOc1ccc(C(=O)Nc2ccc3c(c2)N(C(C)=O)CCC3)cc1	-20%	4.5µM*
COc1cccc(-n2c(=O)c3c(C)c(C)sc3n(CC(=O)NCc3ccccc3)c2=O)c1	?	2%
O=C(Cn1cc(SCc2c(F)cccc2Cl)c2ccccc21)N1CCCC1	?	10%
CCCCN1C(C(=O)c2ccccc2)=C(OC(C)=O)c2ccccc2S1(=O)=O	?	?
Cc1cc(Cl)ccc1NC(=O)Cc1ccc(NC(=O)N2CCCCc3ccccc32)cc1	?	-8%
CN1C(=O)C(C)(C)c2cc(S(=O)(=O)NCc3ccc(C(=O)Nc4ccc(Cl)cc4)cc3)ccc21	-17%	18µM*
O=C(NCc1ccc2c(c1)CCN2C(=O)c1ccc(F)cc1)c1cc2ccccc2[nH]1	-8%	-6%
CC1(C)CCC(c2ccc(Cl)cc2)=C(CN2CCN(c3ccc(C(=O)NS(=O)(=O)c4ccc(N[C@H](CCN5CCOCC5)CSc5ccccc5)c(S(=O)(=O)C(F)(F)F)c4)cc3)CC2)C1	.	-6%
Cc1ccc(NC(=O)CSc2nc3ccccc3c3nc(CCn4c(C)nc5ccccc54)nn23)cc1F	?	?
O=C(Cn1c(=O)n(-c2ccc(Cl)cc2)c(=O)c2c3c(sc21)CCCCC3)Nc1cccc(Cl)c1	?	-16%
O=C(Nc1ccc2nc(SCC(=O)N3CCOCC3)sc2c1)c1cccc(F)c1	-22%	-22%
O=C(CSc1nc(=O)n(Cc2ccncc2)c2c1CCC2)Nc1ccc(F)cc1F	-28%	-5%
COc1ccccc1C(=O)N1c2ncnn2C2(CCCCC2)[C@@H]2CCCC[C@@H]21	-3%	-23%
CCc1cc(C(=O)Nc2cnn(Cc3ccc(F)cc3)c2)no1	2%	-9%[11.5 µM]
COc1ccccc1CNC(=O)c1cnn(-c2ccc(F)cc2F)c1C1CCN(C(=O)OC(C)(C)C)CC1	-17%	-12%
COc1ccc(C2C(C(=O)Nc3cccnc3)=C(C)Nc3nc(SCc4ccccc4)nn32)cc1 (stereo not drawn)	-3%	-6%
CCC1CN(C(=O)Nc2ccccc2C(F)(F)F)c2ccccc2O1 (stereo not drawn)	?	0%
Cc1c(C)n(Cc2ccc(F)cc2)c2ccc(C(=O)N3CCN(c4ccc(Cl)cc4)CC3)cc12	-6%	-13%
Cc1cccc(C)c1Nc1c(-c2ccsc2)nc2ccccn12	9.5µM*	?

Part of the list above, with two lines to a compound:
Value order: PMP22 txn | HTT promoter inh
- O=C(NCc1ccc2c(c1)CCN2C(=O)c1ccc(F)cc1)c1cc2ccccc2[nH]1
  -8% | -6%
- COc1ccc(CNC(=O)Cn2c(SCC(=O)N(C)c3ccccc3)nc3ccccc32)cc1
  -40% | -3%

Going on with the list.
SMILES	PMP22 txn	HTT promoter inh
O=C(c1ccc2c(c1)N(Cc1ccccc1F)C(=O)c1ccccc1S2(=O)=O)N1CCCCC1	3%	-1%
CCOc1ccc(CCNC(=O)c2nn(C)c3c2CSc2ccc(C)cc2-3)cc1OCC	?	?
CCOC(=O)c1c(C)[nH]c(CCC(=O)Nc2ccc(C)c(F)c2)c1C	?	?
CSc1ccc(CCNC(=O)c2ccc(CS(=O)Cc3ccc(Cl)cc3)o2)cc1 (stereo not drawn)	-24%	?
Cc1ccc2c(=O)cc(C(=O)Nc3c(C)n(C)n(-c4ccccc4)c3=O)oc2c1C	-5%	-7%[11.5 µM]
CCOc1ccc(CN2CCc3nc(Nc4ccc5c(c4)OCCO5)ncc3C2)cc1	-18%	22%
COc1ccc(-n2nc3ccc(NC(=O)c4c(OC)cccc4OC)cc3n2)cc1	8%	-3%
C[N+]1(C)[C@@H]2CC(OC(=O)[C@H](CO)c3ccccc3)C[C@H]1[C@H]1O[C@@H]12 (stereo partly drawn)	.	21%
CCc1cccc2sc(N3CCN(C(=O)c4cc5ccccc5cc4OC)CC3)nc12	?	?
Cc1cc(F)ccc1NC(=O)CCS(=O)(=O)c1cc2c(cc1C)NC(=O)CO2	4%	-18%
COc1ccc(-c2noc(-c3cc(C(C)C)[nH]n3)n2)cc1	?	46%[activator]
Cc1ccccc1OCC(=O)Nc1ccc(C(=O)OCc2cc(=O)n3ccsc3n2)cc1	-9%	-8%
COCCNc1oc(-c2ccc(COc3ccc(OC)cc3)o2)nc1C#N	?	9%
CCOC(=O)N1CCc2c(sc(NCc3ccc(N(CC)CC)cc3)c2C(=O)Nc2cc(OC)ccc2OC)C1	?	?
CCOc1cc(Cl)c(S(=O)(=O)n2ccnc2)cc1Cl	-2%	2%
CC1=C(C(=O)Nc2ccccc2Cl)C(c2cccc(O)c2)n2ncnc2N1 (stereo not drawn)	1%	-9%
Cc1ccc2c(c1)c1c(c(=O)n(-c3ccccc3C)c(=O)n1CC(=O)N1CCCC1)n2C	-11%	-12%
Cc1ccc(OCc2nc3ccccc3n2CCOc2ccc(Cl)cc2)cc1	?	-22%
O=C(CSc1nc2c([nH]c3ccccc32)c(=O)n1-c1ccccc1)N1CCOCC1	?	-3%
Cc1ccc(C)c(NC(=O)c2cc(=O)c3cc(C)cc(C)c3o2)c1	-9%	8%[11.5 µM]
COCCN1C(=O)c2[nH]nc(-c3ccccc3O)c2C1c1ccc(Cl)c(Cl)c1 (stereo not drawn)	?	?
COc1ccc(C(=O)N2CCN(c3nc4c(OC)cccc4s3)CC2)cc1OC	?	28µM*
CC(=O)OCC(CCn1cnc2cnc(N)nc21)COC(C)=O	.	2%&12%
CCN1C(=O)c2ccccc2Sc2ccc(NC(=O)Nc3cccc([N+](=O)[O-])c3C)cc21	?	?
CCc1ccc(-c2ccc(C(=O)Oc3ccc(Br)cc3)cc2)nc1	-7%	7%
COc1ccc(CCNC(=O)c2ccc3c(c2)sc2nc(-c4ccccc4)cn23)cc1OC	?	23%
O=C(Nc1ccc2oc(-c3ccc4ccccc4c3)nc2c1)c1ccc(Cl)c(Cl)c1	-21%	1%
CCOc1ccc(-n2c(/C=C/c3cccc(F)c3)nc3cc(OC)c(OC)cc3c2=O)cc1	?	?
COc1cc(OC)c(NC(=O)Cn2cnc3c(nc4n3CCCCC4)c2=O)cc1Cl	9%	-12%[11.5 µM]
CCN(C(=O)Cn1c(C(=O)OC)cc2sccc21)c1cccc(C)c1	?	-23%
COC(=O)c1ccc(NC(=O)CSc2nc3cc4ccccc4cc3[nH]2)cc1	-12%	-9%[11.5 µM]
COC(=O)c1ccccc1NC(=O)Cc1noc2ccc(C)cc12	13%	-9%
CC(C)(C)OC(=O)N1CCC(c2c(C(=O)NCc3ccco3)cnn2-c2ccc(F)cc2)CC1	?	-22%
O=C(Nc1ccc2c(c1)OCO2)c1cc(-c2ccc(Cl)cc2)on1	?	1%
Cc1ccc(NC(=O)C(Cc2c[nH]c3ccccc23)NC(=O)OC(C)(C)C)c(C)c1 (stereo not drawn)	23%	?
Cc1nc2ccccc2n1CCc1nc2c3ccccc3nc(SCC(=O)Nc3ccc(Br)cc3F)n2n1	?	0%
Cc1ccc(-c2nc(-c3cc4cccc(OCc5ccccc5F)c4oc3=O)no2)cc1	11%	-11%
COc1ccc2cc(C(=O)NCc3ccc4c(c3)CCN4C(=O)c3ccc(F)cc3)[nH]c2c1	-3%	-23%
CCOC(=O)c1cccc(NC(=O)C2CCN(S(=O)(=O)c3cn(C)cn3)CC2)c1	6%	-13%
Cc1ccc(CNC(=O)Cc2ccc(NC(=O)N3CCSc4ncccc43)cc2)cc1	-10%	-24%
